Assay outcomes from PubChem BioAssay.
MT1-MMP act inh – blocks activation of human MT1-MMP; AID 651647; GFP/RFP ratio change, % at 20 µM; P50281; actives 0.061% (n = 360,000); HT1080 RFP-PRO-GFP cells, GFP/RFP ratio fluorescence, overnight; percent of plate control window, DMSO zero;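 active means GFP/RFP ratio change of at least 30% with cell ATP level not reduced by more than half and red fluorescence within 50% of control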; further: strong numbers were not always called active
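Material – HT1080 RFP-PRO-GFP cells · Control set – DMSO wells and RFP-L50D-GFP cells · Incubation – overnight cell settling, then overnight compound exposure, 37 °C, 5% CO2 · Compound dosing – single-point 20 µM compound, 1% DMSO · Read-out – GFP/RFP fluorescence ratio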
Rce1 inhib – blocks yeast Ras-converting enzyme; calls only; actives 0.27% (n = 290,000); yeast membranes, quenched prenylated peptide cleavage fluorescence; AID 2563;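 active means fall in fluorescence gain of 50% or more versus controls, with final raw signal at or below 3038400; inconclusive means same 50% fall but final raw signal above 3038400; inactive means fall in fluorescence gain under 50%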;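 further: plate controls were neutral control wells for no effect and wells lacking membranes for full effect; tested at 10 µM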
UUG fidelity – yeast start codon fidelity modulation | AID 602363 | S. cerevisiae UUG-firefly luciferase reporter, luminescence/redox ratio | activity score, % at 18.7 µM | actives 0.13% (n = 350,000);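 active means replicate mean at a twofold rise or more, about +100% in these data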;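 further: firefly luciferase made from a UUG start codon reports start codon fidelity; reporter light over untreated wells divided by growth signal over untreated wells; some hits fall short of that in this replicate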
eIF4H inh – inhibitors of RNA binding by human eIF4H; Q15056; eIF4H fluorescence polarization binding assay; inhibition, % at 35 µM; actives 0.94% (n = 290,000);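 active means 50% or more with normal probe brightness, or confirmed in later tests; inconclusive means above 50% with abnormal brightness, or retests that disagree; inactive means below 50% or failed in later tests; about a fifth of its hits are not listed in these tables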;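 further: calls also rest on retests at 20 µM and on dose response follow-up; 0% = protein and probe with vehicle and 100% = probe without protein; strong numbers were not always called active; many hits fall short of the cut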
PABP FP inh – blocks human PABP binding to poly(A) RNA; P11940; inhibition, % at 35 µM; fluorescence polarization; AID 2014; actives 1% (n = 290,000);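 active means 50% or more with normal probe brightness, or confirmed in later tests; inconclusive means above 50% with abnormal brightness, or retests that disagree; inactive means below 50% or failed in later tests; about a fifth of its hits are not listed in these tables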;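 further: calls also rest on retests at 20 µM and on dose response follow-up; controls were probe without protein and protein plus probe with vehicle; some compounds called inactive have numbers as strong as hits; many hits fall short of the cut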
Target sequence (P11940 whole entry, looked up): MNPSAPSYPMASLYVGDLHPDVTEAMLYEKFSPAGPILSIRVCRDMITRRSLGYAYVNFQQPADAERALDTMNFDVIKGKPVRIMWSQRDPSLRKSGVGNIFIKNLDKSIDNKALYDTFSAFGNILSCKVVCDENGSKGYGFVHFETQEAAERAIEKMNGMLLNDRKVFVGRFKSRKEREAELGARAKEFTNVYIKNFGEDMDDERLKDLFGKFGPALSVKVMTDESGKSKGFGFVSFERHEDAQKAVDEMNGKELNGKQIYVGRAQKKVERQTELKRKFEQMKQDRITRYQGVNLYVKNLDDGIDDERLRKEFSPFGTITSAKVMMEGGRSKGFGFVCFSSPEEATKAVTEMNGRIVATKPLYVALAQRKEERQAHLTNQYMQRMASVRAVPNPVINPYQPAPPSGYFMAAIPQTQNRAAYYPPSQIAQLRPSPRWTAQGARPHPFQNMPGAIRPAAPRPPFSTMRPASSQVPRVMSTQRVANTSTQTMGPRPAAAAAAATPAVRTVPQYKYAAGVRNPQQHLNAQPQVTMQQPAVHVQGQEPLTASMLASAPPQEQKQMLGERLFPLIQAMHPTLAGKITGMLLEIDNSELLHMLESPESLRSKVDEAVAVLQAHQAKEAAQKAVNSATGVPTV
CSC inhib – blocks cancer stem cells. inhibition, % at 7.5 µM. actives 1.1% (n = 300,000). AID 2717. cancer stem cell-like cells viability, luminescence;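 active means mean at 75% or more and at least half the replicates too; inconclusive means mean and replicates disagree; tested in HMLE shEcad cells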;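 further: 0% = median of negative and 100% = median of positive control wells; the first replicate is given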
Env fusion inh – inhibitors of HIV Env-mediated cell fusion. HeLa-JRFL Env/CEM21 cell fusion, luciferase. inhibition, % at 12.3 µM. actives 1.1% (n = 360,000). AID 651610;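 active means mean replicate inhibition score of at least 50 and every replicate individually at or above 50; inconclusive means only one of the two criteria met; inactive means mean below 50 and not all replicates reaching 50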;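 further: 0% = plate neutral controls and 100% = maraviroc near 300 nM; one replicate is shown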
eIF4H inh retest – also measured in eIF4H inh; calls as there; inhibition, %; compound at 20 µM; confirmation average;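 mean of two retest wells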
PABP FP inh retest – second read-out of PABP FP inh, no call of its own (marks repeat the call); inhibition, %; compound at 20 µM; confirmation repeats;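 mean of two retest wells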
MT1-MMP act inh RFP – further read-out of MT1-MMP act inh, marked with its call; RFP signal change, %; measured here: RFP expression control read;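 0 = vehicle wells; hits needed this value within 50% of zero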
Starred values were filed as active, the others as inactive.

O=C(CCCn1c(=S)[nH]c2cc3c(cc2c1=O)OCO3)NCCc1ccc(Cl)cc1 was read as MT1-MMP act inh 7, UUG fidelity -14, Env fusion inh -9 and MT1-MMP act inh RFP 0.
Screening CCCCNC(=O)c1onc(CSc2ccc(F)c(F)c2)c1C(=O)NCCCC returned MT1-MMP act inh 0, Rce1 inhib inactive, UUG fidelity -12, CSC inhib 49, Env fusion inh 13 and MT1-MMP act inh RFP -1.
For CCCc1c(C(=O)NNc2ccc(C)cc2)cnn1-c1ccccc1 the results were MT1-MMP act inh 3, Rce1 inhib inactive, eIF4H inh -6, PABP FP inh -12, CSC inhib 93*, Env fusion inh 11 and MT1-MMP act inh RFP 1.
For Cc1ccc(NC(=O)Nc2cccc(F)c2)nc1 the results were MT1-MMP act inh -4, Rce1 inhib inactive, UUG fidelity -3, eIF4H inh -3, PABP FP inh -5, CSC inhib -10, Env fusion inh -52 and MT1-MMP act inh RFP -5.
For CC(Sc1n[nH]c(-c2ccccc2F)n1)C(=O)Nc1ccc(S(N)(=O)=O)cc1 (stereo not given) the results were MT1-MMP act inh 4, UUG fidelity -21, CSC inhib -12 and MT1-MMP act inh RFP 0.
`Cc1ccnc(NC(=O)c2ccc3c(c2)C(=O)N(CC(C)C)C3=O)c1` gave MT1-MMP act inh -4, Rce1 inhib inactive, UUG fidelity -57, eIF4H inh -18, PABP FP inh -4, CSC inhib -2, Env fusion inh 12 and MT1-MMP act inh RFP -4.
Cc1ccc(S(=O)(=O)N2CN(Cc3ccco3)c3nc4ccccc4nc32)cc1 was read as MT1-MMP act inh -12, Rce1 inhib inactive, UUG fidelity 0, eIF4H inh inconclusive, PABP FP inh 51*, CSC inhib 9, PABP FP inh retest 100* and MT1-MMP act inh RFP 5.
For COc1cc(NC(=S)NC(=O)c2ccccc2F)ccc1NC(=O)c1ccco1 the results were MT1-MMP act inh 3, Rce1 inhib inactive, eIF4H inh 7, PABP FP inh 11, CSC inhib 2, Env fusion inh -18 and MT1-MMP act inh RFP 6.
CC(C)NC(=O)CN(Cc1ccc(F)cc1)C(=O)CCC(=O)Nc1ccccn1 was read as MT1-MMP act inh -1, Rce1 inhib inactive, UUG fidelity -4, eIF4H inh 3, PABP FP inh 7, Env fusion inh -3 and MT1-MMP act inh RFP 2.
For CC(=O)c1ccc(NC(=O)c2ccc(CNc3c(N4CCCC4)c(=O)c3=O)cc2)cc1 the results were MT1-MMP act inh 3, Rce1 inhib inactive, UUG fidelity -13, eIF4H inh 0, PABP FP inh 0, CSC inhib -1, Env fusion inh -14 and MT1-MMP act inh RFP 3.
Screening CCCc1nc2ccccc2c(=O)n1NC(=O)c1c(O)c2ccccc2[nH]c1=O returned MT1-MMP act inh -5, Rce1 inhib inactive, UUG fidelity -2, eIF4H inh 6, PABP FP inh 20, CSC inhib -13, Env fusion inh -11 and MT1-MMP act inh RFP -5.
For C[C@H]1O[C@H](O[C@H]2[C@H](O[C@@H]3CC[C@@]4(C)C(CC[C@]5(C)C4CC=C4[C@@H]6CC(C)(C)CC[C@]6(C(=O)O[C@@H]6O[C@H](CO)[C@@H](O)[C@H](O)[C@H]6O)CC[C@]45C)C3(C)C)O[C@H](C(=O)O)[C@@H](O)[C@@H]2O)[C@@H](O)[C@@H](O)[C@@H]1O (stereo not given in full) the results were MT1-MMP act inh 9, UUG fidelity 11, CSC inhib 9 and MT1-MMP act inh RFP 3.
CCOC(=O)C1CCCN(C2=NC(=O)/C(=C/c3ccc(N(C)C)cc3)S2)C1 (stereo not given) was read as MT1-MMP act inh -146, Rce1 inhib inactive, UUG fidelity 10, eIF4H inh inconclusive, PABP FP inh inconclusive, CSC inhib 7, Env fusion inh 12 and MT1-MMP act inh RFP -1.
`COc1ccc(C2SCCN2C(=S)Nc2cccc(Cl)c2)cc1` (stereo not given) gave MT1-MMP act inh -2, Rce1 inhib inactive, eIF4H inh 0, PABP FP inh -6, Env fusion inh 18 and MT1-MMP act inh RFP -1.
For CC(OC(=O)c1ccc2ncsc2c1)C(=O)Nc1cccc(Cl)c1 (stereo not given) the results were MT1-MMP act inh 8, UUG fidelity -16, Env fusion inh 11 and MT1-MMP act inh RFP -2.
CC(C)[C@H](NC(=O)[C@@H]1CSC2c3ccccc3C(=O)N21)C(=O)N1CCCCC1 (stereo not given in full) was read as MT1-MMP act inh -5, Rce1 inhib inactive, UUG fidelity -10, eIF4H inh 4, PABP FP inh -4, CSC inhib -6, Env fusion inh 1 and MT1-MMP act inh RFP -3.
NC1=NC(c2ccc([N+](=O)[O-])cc2)N(c2ccc(F)cc2)C(N)=N1 (stereo not given) was read as MT1-MMP act inh 1, Rce1 inhib inactive, CSC inhib 2, Env fusion inh -32 and MT1-MMP act inh RFP 2.
For COc1ccc(C(CCNCc2ccc(F)cc2)c2ccc(F)cc2)cc1 (stereo not given) the results were MT1-MMP act inh -2, Rce1 inhib inactive, eIF4H inh -4, PABP FP inh 8, CSC inhib 50, Env fusion inh -25 and MT1-MMP act inh RFP -5.
COc1ccc(-c2nnn(CC(=O)N(Cc3ccc(F)cc3)C(C(=O)NC3CCCC3)c3ccc(F)cc3)n2)cc1 (stereo not given) was read as MT1-MMP act inh -2, Rce1 inhib inactive, UUG fidelity -10, CSC inhib -5, Env fusion inh 11 and MT1-MMP act inh RFP -1.
Screening Cc1ccc(SCC(=O)NC(=O)Nc2ccc3c(c2)OCCO3)c(C)c1 returned MT1-MMP act inh -2, Rce1 inhib inactive, eIF4H inh -4, PABP FP inh 3, CSC inhib -7, Env fusion inh -17 and MT1-MMP act inh RFP 5.
Fc1ccc(CNC(=S)NCc2ccc(F)cc2)cc1 was read as MT1-MMP act inh 1, eIF4H inh -4, PABP FP inh 2, CSC inhib -9, Env fusion inh 14 and MT1-MMP act inh RFP 3.
For CCc1nc(SCc2ccccc2)n[nH]1 the results were MT1-MMP act inh 1, Rce1 inhib inactive, UUG fidelity -15, eIF4H inh -6, PABP FP inh -5, CSC inhib -12, Env fusion inh 10 and MT1-MMP act inh RFP 4.
For COc1ccc(-n2c(SCc3cn4c(C)cccc4n3)nc3ccccc3c2=O)cc1OC the results were MT1-MMP act inh 1, Rce1 inhib inactive, eIF4H inh 0, PABP FP inh -20, CSC inhib 8, Env fusion inh 6 and MT1-MMP act inh RFP 0.
Screening NS(=O)(=O)c1ccc(NC(=O)/C=C/c2cccs2)cc1 returned MT1-MMP act inh 0, Rce1 inhib inactive, UUG fidelity -4, eIF4H inh -1, PABP FP inh 32, CSC inhib 11, Env fusion inh -18 and MT1-MMP act inh RFP 0.
CCOC(=O)Cn1c(=N)n(CCOc2ccc3ccccc3c2)c2ccccc21 was read as MT1-MMP act inh -7, Rce1 inhib inactive, UUG fidelity -14, eIF4H inh 9, PABP FP inh -13, CSC inhib -12, Env fusion inh -40 and MT1-MMP act inh RFP -3.
Screening Cn1sc(NC(=O)c2cccc(Cl)c2)nc1=O returned MT1-MMP act inh 3, Rce1 inhib inactive, UUG fidelity -19, eIF4H inh 24, PABP FP inh 35, CSC inhib -2, Env fusion inh -71 and MT1-MMP act inh RFP 3.
CCC(C)[C@H](NC(=O)C1CC(=O)N(c2ccc3c(c2)OCO3)C1)C(=O)NC1CCCCC1 (stereo not given in full) was read as MT1-MMP act inh -13, Rce1 inhib inactive, UUG fidelity -12, eIF4H inh inconclusive, PABP FP inh inconclusive, CSC inhib -8, Env fusion inh -12 and MT1-MMP act inh RFP 2.
`Cc1cc(Cn2nnc(-c3ccc(Br)cc3)n2)cc(C)c1O` gave MT1-MMP act inh 4, UUG fidelity -21, CSC inhib 68, Env fusion inh 7 and MT1-MMP act inh RFP -2.
For Cc1ncc([N+](=O)[O-])n1CC(=O)NC1CCCCC1 the results were MT1-MMP act inh 1, Rce1 inhib inactive, UUG fidelity -18, eIF4H inh 8, PABP FP inh -3, Env fusion inh -67 and MT1-MMP act inh RFP 3.
Cc1c(C(=O)Nc2ccccc2)oc2c1C(=O)CC(C)(C)C2 was read as MT1-MMP act inh 6, Rce1 inhib inactive, UUG fidelity -2, eIF4H inh 3, PABP FP inh 8, CSC inhib 18, Env fusion inh -21 and MT1-MMP act inh RFP -2.
COc1ccc(NC(=O)CCN2C(=O)NC3(CCCC3)C2=O)cc1Cl was read as MT1-MMP act inh 0, UUG fidelity -6, CSC inhib -1, Env fusion inh 2 and MT1-MMP act inh RFP 2.
Cc1ccc(S(=O)(=O)N(C(=O)c2ccncc2)c2ccc3oc4c(c3c2)CCCC4)cc1[N+](=O)[O-] was read as MT1-MMP act inh 7, Rce1 inhib inactive, UUG fidelity -15, eIF4H inh -4, PABP FP inh 8, Env fusion inh 6 and MT1-MMP act inh RFP -7.
Screening CC(C)C[C@@H](CN1CCCC1CN1C(=S)NC[C@@H]1Cc1ccc(O)cc1)N1C[C@H](Cc2ccc(O)cc2)N(CCc2ccccc2)C1=S (stereo not given in full) returned MT1-MMP act inh 1, UUG fidelity -28, Env fusion inh -12 and MT1-MMP act inh RFP -7.
Screening O=C(NCc1ccccc1)c1ccc2nc(N3CCOCC3)sc2c1 returned MT1-MMP act inh -1, Rce1 inhib inactive, UUG fidelity 7, eIF4H inh -9, PABP FP inh -10, CSC inhib -10, Env fusion inh -4 and MT1-MMP act inh RFP -3.
Screening C/C(=C(\C#N)C(=O)NCCN1CCOCC1)N(C)C returned MT1-MMP act inh 1, Rce1 inhib inactive, eIF4H inh -5, PABP FP inh -3, CSC inhib -7 and MT1-MMP act inh RFP 4.
`O=C(/C=C/c1cccc([N+](=O)[O-])c1)NCC1CCCO1` (stereo not given) gave MT1-MMP act inh -2, Rce1 inhib inactive, UUG fidelity -13, eIF4H inh 2, PABP FP inh -8, Env fusion inh 3 and MT1-MMP act inh RFP 0.
`CC(C)CC(N)c1csc(Nc2ccc(C(=O)N(C)Cc3ccccc3)cn2)n1` (stereo not given) gave MT1-MMP act inh 0, UUG fidelity 8, Env fusion inh 25 and MT1-MMP act inh RFP 0.
For C=CCNC(=O)/C(=C/c1ccc(Br)cc1)NC(=O)c1ccccc1OC the results were MT1-MMP act inh -4, Rce1 inhib inactive, eIF4H inh 4, PABP FP inh -8, CSC inhib -13, Env fusion inh 8 and MT1-MMP act inh RFP -2.
Screening N/C(=N\OC(=O)N1CCOCC1)c1ccc(Cl)cc1 returned MT1-MMP act inh -11, Rce1 inhib inactive, UUG fidelity -8, eIF4H inh 28, PABP FP inh -5, CSC inhib -2, Env fusion inh -2 and MT1-MMP act inh RFP -17.
For CCOc1ccc(NS(=O)(=O)c2ccc(NC(=S)NC(C)=O)cc2)cc1 the results were MT1-MMP act inh -3, Rce1 inhib inactive, eIF4H inh -12, PABP FP inh 16, CSC inhib -4, Env fusion inh -16 and MT1-MMP act inh RFP -12.
O=C(O)CCc1ccc(-c2ccc(Br)cc2)n1Cc1ccco1 was read as MT1-MMP act inh -12, Rce1 inhib inactive, UUG fidelity 8, eIF4H inh 55, PABP FP inh 36, CSC inhib 3, eIF4H inh retest 10, PABP FP inh retest -5 and MT1-MMP act inh RFP 1.
For CCN(CC)c1ccc(NS(=O)(=O)c2ccc(-c3ccc(=O)[nH]n3)o2)c(C)c1 the results were MT1-MMP act inh 4, Rce1 inhib inactive, UUG fidelity -11, eIF4H inh 39, PABP FP inh 32, CSC inhib -1, Env fusion inh 1 and MT1-MMP act inh RFP 0.
